Screening results: PubChem, several laboratories
HSV augment = enhancers of HSV replication in host cells, fold increase, host cell viability. HSV replication augmentation in cells. maximum fold increase. actives 0.005% (n = 220,000). AID 1956, 2009;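 active = peak rise of 1.5-fold or more in the series; tested in PC3 cells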;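 note: first round at 10 µM; read as green reporter fluorescence; hits show the peak of a series up to 25 µM; 1 = signal of infected wells without compound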
Insulin prom inh = inhibitors of insulin promoter-driven GFP, primary screen, imaging, TRM-6 cells (human fetal islet line), eGFP reporter, cell count | reporter expression induced with tamoxifen | inhibition, % at 2 µM | actives 0.9% (n = 130,000);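 active = inhibition above the mean plus 3 SD, with well images judged a real hit on visual review, cut at about 60% in these data, passing the limit was not always enough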
PKD1 inh = inhibitors of human PKD1 kinase, biochemical, fluorescence polarization; AID 797, 2007; actives 0.056% (n = 200,000); PKD1 kinase fluorescence polarization assay; inhibition, %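 (about 10 µM by stock and volumes)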;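 active = inhibition of 50% or more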;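 note: controls were vehicle for no effect and a reference inhibitor for full effect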
Target sequence (Q15139 whole entry, looked up): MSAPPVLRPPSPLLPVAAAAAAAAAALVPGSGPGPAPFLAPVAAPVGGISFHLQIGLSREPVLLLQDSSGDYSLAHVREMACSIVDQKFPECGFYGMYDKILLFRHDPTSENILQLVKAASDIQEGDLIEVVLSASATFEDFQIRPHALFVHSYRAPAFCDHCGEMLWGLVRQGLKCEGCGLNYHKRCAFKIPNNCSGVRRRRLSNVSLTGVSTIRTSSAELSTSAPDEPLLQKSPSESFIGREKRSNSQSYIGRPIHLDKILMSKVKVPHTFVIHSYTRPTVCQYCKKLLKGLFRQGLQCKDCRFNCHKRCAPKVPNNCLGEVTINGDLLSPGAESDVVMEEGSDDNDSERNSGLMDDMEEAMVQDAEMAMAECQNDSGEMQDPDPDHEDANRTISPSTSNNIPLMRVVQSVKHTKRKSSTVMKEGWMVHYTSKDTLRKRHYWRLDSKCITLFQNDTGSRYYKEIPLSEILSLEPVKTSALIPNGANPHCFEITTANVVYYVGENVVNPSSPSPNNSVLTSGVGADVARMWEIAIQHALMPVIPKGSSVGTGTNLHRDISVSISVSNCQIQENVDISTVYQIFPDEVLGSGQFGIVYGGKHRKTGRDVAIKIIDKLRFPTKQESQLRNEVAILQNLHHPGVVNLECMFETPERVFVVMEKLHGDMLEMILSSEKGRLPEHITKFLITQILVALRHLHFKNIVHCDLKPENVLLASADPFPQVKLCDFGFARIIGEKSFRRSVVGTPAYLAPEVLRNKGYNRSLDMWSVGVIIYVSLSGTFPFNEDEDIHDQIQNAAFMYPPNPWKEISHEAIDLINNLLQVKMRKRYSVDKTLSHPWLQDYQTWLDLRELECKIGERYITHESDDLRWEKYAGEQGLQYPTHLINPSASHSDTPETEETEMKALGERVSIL
RGS16-Gao HTS = modulators of RGS16 binding to Galphao, primary screen, biochemical, human proteins, multiplexed bead flow cytometry; Regulator of G-protein signaling 16 (Homo sapiens) + Guanine nucleotide-binding protein …; bead-based flow cytometry RGS16-Galphao binding, fluorescence; actives lie on both sides; binding response (% of control), % at 10 µM; actives 0.38% (n = 220,000); AID 1441, 2008;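 active = below 25% or above 175%, edge rows of some plates excepted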;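 note: Galphao activated by GDP with aluminum fluoride before binding; 100% = wells without compound and 0% = beads without RGS; some results beyond the cut were filed as inactive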
GALR2 agonist = GALR2 receptor agonists, primary screen, cell-based. Galanin receptor type 2 (Homo sapiens), O43603. GALR2-expressing cells, agonist activation read-out. activation, %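 (tested at 5 µM)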. actives 0.48% (n = 140,000);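 active = above mean plus 3 SD of all compounds, about 5% in these data, not always enough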;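 note: 0% = vehicle buffer wells and 100% = reference agonist at full effect; tested in CHO reporter cells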
Insulin prom inh cell count = further read-out of Insulin prom inh, marked with its call; normalized cell count, %; measured here: cell count, toxicity; reference of the scale not given here;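 cells exposed to compound for 48 h; stained nuclei by imaging scaled within each plate; lower means fewer cells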
HSV augment primary fold = recorded beside HSV augment, whose call it bears; fold increase; compound at 10 µM; measured here: primary screen fold increase 10 uM; tested in PC3 cells;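 GFP signal in the first replicate; 1 = infected wells without compound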
* hit, by the source's call; i = inactive; · = no result given.

SMILES	HSV augment	HSV augment primary fold	Insulin prom inh	Insulin prom inh cell count	PKD1 inh	RGS16-Gao HTS	GALR2 agonist
C=CCn1c(C(C)NC(=O)CC)nc2ccccc21 (centres undefined)	i	1.1	18	78	-9	103	-2.6
CC1(C)C(C=C(Cl)Cl)C1C(=O)Nc1ccc([N+](=O)[O-])cc1 (centres undefined)	i	0.72	12	110	-10	98	0.3
COC(=O)C1=C(C)OC(N)=C(C#N)C1c1cc2cccc(C)c2nc1Cl (centres undefined)	i	0.97	·	·	-1	105	·
COc1ccc(NC(=O)CN2C(=O)CC(C)(C)S(=O)(=O)c3ccccc32)cc1	i	1	·	·	2	100	-3.8
S=c1[nH]nc2c3c4c(sc3ncn12)CCCC4	i	0.99	9	81	-5	41	-1.6
CCCOc1ccc(CN2CCOCC2)cc1OC	i	1.1	·	·	·	114	·
CC(C)S(=O)(=O)C1=NSC2=NC(=O)/C(=C\c3ccc(-c4cccc(C(=O)O)c4)o3)C(=N)N21	i	1.1	·	·	1	92	·
CCC(C)[C@H](NC(=O)N1CCCCCC1)C(=O)O (some centres undefined)	i	1.1	·	·	·	110	·
Cc1cccc(C)c1NC(=O)C(=O)NCc1ccccn1	i	0.88	-14	131	6	100	-2.1
O=C1C=C(NC2=CC3OC(c4ccccc4)OCC3OC2=O)CCC1 (centres undefined)	i	0.78	31	136	-17	102	-0.8
O=C(Cn1cc(C(F)(F)F)ccc1=O)Nc1cc(S(=O)(=O)N2CCOCC2)ccc1Cl	i	0.95	11	92	2	100	-1.9
CC(C)c1nc(CNC(=O)CCc2nnc(-c3ccsc3)o2)cs1	i	0.97	·	·	4	97	·
Cc1ccc(-n2nnnc2SCC(N)=O)c(C)c1	i	0.98	·	·	-3	100	-2.2
COc1cccc(C2C(C(=O)c3cc4ccccc4o3)=C(O)C(=O)N2CCN(C)C)c1OC (centres undefined)	i	0.97	0	37	-4	·	-0.2
CC(O)CNc1nc2c(c(=O)n(Cc3ccc(Cl)c(Cl)c3)c(=O)n2C)n1C (centres undefined)	i	0.92	·	·	·	99	·
CCOC(=O)N1CCN(C(=O)c2cccc(OC)c2OC)CC1	i	1	-225	61	-4	103	0.2
CC1CCCN(S(=O)(=O)c2ccc(C(=O)Nc3nnc(-c4ccccn4)o3)cc2)C1 (centres undefined)	i	1	7	170	-3	114	·
CC1(C)Oc2ccc(C(=O)N3CCCCC3)cc2N(CC(=O)NCc2ccccc2)C1=O	i	1	-24	93	-5	73	-2.6
CC(=O)c1cccc(N2C(=NC(=O)C(C)C)SC3CS(=O)(=O)CC32)c1 (centres undefined)	i	0.92	·	·	-8	99	-0.2
CC(=O)Oc1ccc(C(=O)Cc2ccccn2)c(O)c1	i	1.2	·	·	-15	107	-0.6
CCSc1nnc(NC(=O)CSc2nccn2-c2cccc(C)c2C)s1	i	1.1	·	·	6	125	-1.6
COC(=O)c1sc(NC(=O)C2CCCCC2C(=O)O)c(C(=O)OC)c1C (centres undefined)	i	1.1	·	·	-5	102	-0.8
C#CCOCCOCCOCCNc1nc(N2CCN(C(=O)[C@H](C(C)C)n3cc(CCO)nn3)CC2)nc(N2CCN(C(=O)[C@H]([C@@H](C)CC)n3cc(CCCN=C(N)N)nn3)CC2)n1	i	0.81	70*	95*	6	51	-0.9
COc1ccc(OC)c(C(=O)c2ccc(C(=O)O)cc2)c1	i	0.82	-37	75	4	77	-2.0
CCSc1nc2c(cnn2-c2ccc(C)cc2)c(=O)[nH]1	i	1.3	·	·	-6	109	-1.1
O=C(CCNS(=O)(=O)c1ccc2c(c1)CCC(=O)N2)Nc1ccc2c(c1)OCCO2	i	0.86	·	·	-10	96	-2.8
CC1=NN(C(=O)c2ccccc2Cl)C(O)(c2cccnc2)C1 (centres undefined)	i	1	50	54	-4	102	·
Nc1nc(CSc2nc3ccccc3[nH]2)nc(N2CCOCC2)n1	i	0.92	22	79	-4	102	-2.0
COc1ccc(CNCCCO)cc1OC	i	0.99	0	68	1	115	-0.5
O=c1c(-c2cnn(-c3ccccc3)c2)coc2cc(O)ccc12	i	1	·	·	-1	104	·
CCn1c(C)csc1=NC(=O)c1ccccc1O	i	1.3	·	·	11	99	-1.1
COc1ccccc1C(O)(c1ccccc1)C(CN1CCOCC1)c1ccccc1 (centres undefined)	i	0.97	0	77	4	98	·
CCOc1ccc(C(=O)NNC2CC(=O)N(CCc3ccccc3)C2=O)cc1OC (centres undefined)	i	0.94	11	94	-4	101	0.5
C/C(=N\Nc1ccc(Cl)c(C(=O)O)c1)c1ccc[nH]1	i	0.85	·	·	·	97	·
COc1ccc(NC(=O)c2csc(Cc3ccc(Cl)cc3)n2)cc1	i	1	-38	87	-5	102	·
C#CC(C)(CC)NC(=O)c1cc(OC)c(OC)c(OC)c1 (centres undefined)	·	·	17	54	3	113	-0.8
COc1ccccc1C(=O)Nc1nc(-c2ccc(S(=O)(=O)N3CCOCC3)cc2)cs1	i	0.7	-7	201	-5	97	2.0
O=C(C1CCN(S(=O)(=O)c2cnc[nH]2)CC1)N(CCc1ccccc1)Cc1ccccc1	i	0.94	·	·	-4	100	·
Cc1cccc(NS(=O)(=O)c2cccs2)n1	i	0.84	-20	114	-5	102	-0.9
COCCOc1cc(Nc2nnc(C(F)(F)F)s2)c(Cl)cc1Cl	i	0.99	-51	167	-4	102	-1.3
Cc1ccc(C)c(C(=O)COC(=O)c2cc([N+](=O)[O-])ccc2NCCO)c1	i	0.85	·	·	5	106	1.2
O=C(COC(=O)c1n[nH]c2ccccc12)NC(=O)NCc1ccco1	i	0.94	·	·	-2	102	-3.7
CC(C)CC(=O)Nc1ccc(C(=O)Cn2c(=O)oc3ccccc32)cc1	i	1.1	·	·	1	103	·
CCCCOC(=O)Cn1c(=N)n(CCC)c2ccccc21	i	1	·	·	8	105	-1.9
CSc1nc(NCc2ccccc2)c2c3c(sc2n1)CN(C)CC3	i	0.82	11	100	14	119	-1.9
CC1CCCN(CC(O)COC(c2ccccc2)c2ccccc2)C1 (centres undefined)	i	0.92	-56	115	-6	109	·
O=C1c2cccc3cc(Br)cc(c23)C(=O)N1Nc1ccccc1	i	0.91	·	·	16	99	-0.6
Cc1cc(S(=O)(=O)N(Cc2ccc(C(C)C)cc2)CC2CCCO2)ccc1-n1cnnn1 (centres undefined)	i	0.92	38	63	-1	94	-2.0
Cc1ccc(O)c(NC(=O)c2cccc(NC(=O)c3ccco3)c2)c1	i	0.87	20	127	8	107	0.8
O=C(NCCCN1CCOCC1)c1cc(-c2cccs2)on1	i	1.2	·	·	-4	96	-4.0
CCOc1cc2[nH]c(=S)n(CCC(=O)N3CCc4ccccc4C3)c(=O)c2cc1OCC	i	0.8	-3	149	-15	100	-1.4
CCc1ccc(NC(=O)N2CCN(c3ccccc3)CC2)cc1	i	0.86	·	·	0	105	·
Cc1ccc2nc(NC(=O)C3CCN(S(=O)(=O)c4cccnc4)CC3)sc2c1	i	0.89	·	·	0	110	-1.8
Cc1ccc(Cn2ccc(NC(=O)c3cc(-c4ccco4)on3)n2)cc1	i	0.85	15	173	-11	95	-2.3
CC(=O)Nc1ccc(S(=O)(=O)CCC#N)cc1	i	0.87	-8	110	-2	101	-0.3
Cc1ccc(N2C(=O)CC(Sc3ccccc3C(=O)O)C2=O)c([N+](=O)[O-])c1 (centres undefined)	i	1	11	107	3	103	·
O=C(Nc1cccnc1)c1ccc(N2CCCC2)c([N+](=O)[O-])c1	i	1.1	·	·	2	104	·
COc1cc(/C=C2\SC(=S)N(NS(=O)(=O)c3ccccc3)C2=O)cc(OC)c1OC	i	0.91	·	·	·	99	·
CCN(CC(=O)NCc1cccs1)C(=O)CCc1c[nH]c2ccccc12	i	0.95	-33	86	-6	107	·
COc1cc2c(C(=O)NCc3ccccn3)cn(CC(C)C)c(=O)c2cc1OC	i	0.9	·	·	-5	115	-1.9

Carrying on:
SMILES	HSV augment	HSV augment primary fold	Insulin prom inh	Insulin prom inh cell count	PKD1 inh	RGS16-Gao HTS	GALR2 agonist
Cc1oc(-c2ccccc2Cl)nc1CN(C)C(C)c1ccon1 (centres undefined)	i	0.93	·	·	0	117	·
Cc1cc(OCC(=O)N(C)C)c2c(-c3ccccc3)cc(=O)oc2c1	i	0.76	·	·	-9	107	-3.1
O=C1c2ccccc2NC(c2ccc(O)cc2)N1/N=C/c1ccc(O)cc1 (centres undefined)	i	1	0	99	-8	117	-1.1
CCc1ccc(Nc2ccc(C(N)=O)cc2[N+](=O)[O-])cc1	i	0.93	·	·	10	101	0.6
Nc1nnc(SCC(=O)OCC(=O)NC23CC4CC(CC(C4)C2)C3)s1	i	0.92	·	·	-3	7.7*	·
CCCSc1nc(C)cc(=O)[nH]1	i	0.95	7	76	-4	104	-3.0
O=C(CSc1ncn[nH]1)N1N=C2/C(=C/c3ccco3)CCCC2C1c1ccco1 (centres undefined)	i	0.73	29	95	2	97	-2.7
O=C(N/N=C/c1ccncc1)c1cccc(NC(=O)c2ccccc2Cl)c1	i	1.1	34	77	3	125	-0.1
O=C(COC(=O)c1cc(S(=O)(=O)N2CCCCC2)ccc1N1CCOCC1)NC1CCS(=O)(=O)C1 (centres undefined)	i	0.87	·	·	-2	100	·
CCc1ccc(-c2nc(CCl)cs2)cc1	i	1	·	·	-7	125	-2.2
CCN(CC)S(=O)(=O)c1cccc(C(=O)OCc2cc(=O)n3nc(C)sc3n2)c1	i	0.93	-86	34	6	96	-2.1
CCc1ccc(OCC(=O)Nc2ccc(-c3nc4ccccc4o3)c(O)c2)cc1	i	0.91	-84	91	3	102	-3.4
COc1cc2cc(CN(Cc3cccs3)C(=S)Nc3ccccc3)c(=O)[nH]c2cc1OC	·	·	-46	122	12	97	0.0
CCCc1nc2ccccc2[nH]1	i	0.76	80*	109*	2	108	-2.4
CCC(c1nnnn1Cc1ccco1)N(Cc1cc2cc(C)cc(C)c2[nH]c1=O)CC1CCCO1 (centres undefined)	i	1.1	60	134	-14	102	0.5
CC(C(=O)O)n1nnc2ccccc21 (centres undefined)	i	0.92	·	·	·	99	·
COC(=O)N/N=C/c1cn(Cc2ccccc2Cl)c2ccccc12	i	0.88	19	128	-3	105	0.3
CC(=O)Nc1cccc(NC(=O)c2ccco2)c1	i	1.1	·	·	-8	102	-0.9
Clc1ccccc1Cc1noc(CN2CCCCC2CCc2ccccn2)n1 (centres undefined)	i	0.95	·	·	0	95	·
COc1ccc2cc(S(=O)(=O)N3CCOCC3)ccc2c1	i	0.98	·	·	0	101	-2.7
Cc1ccccc1Nc1nc(N)nc(-c2oc3ccccc3c2C)n1	i	0.9	·	·	·	88	·
C=CCNC(=S)N(Cc1ccccc1)Cc1ccccc1	i	1	·	·	6	101	·
CN1CCC(=O)N([C@H](CSc2ccc(Br)cc2)c2ccccc2)CC1	i	0.85	·	·	·	101	·
CN(C)S(=O)(=O)c1ccc(NC(=O)/C=C/c2ccccc2Cl)cc1	i	1.1	·	·	3	95	0.2
CC(=O)C1=C(C)Nc2ncnn2C1c1ccccc1Cl (centres undefined)	i	0.88	·	·	-4	95	-0.2
N#C/C(=C/c1ccc(N2CCCCC2)o1)C(=O)Nc1ccc2ccccc2c1	·	·	-186	138	-45	164	-1.4

An excerpt of these results, with each value named.
> COC(=O)C1=C(C)OC(N)=C(C#N)C1c1cc2cccc(C)c2nc1Cl (centres undefined)
  HSV augment: i
  HSV augment primary fold: 0.97
  Insulin prom inh: ·
  Insulin prom inh cell count: ·
  PKD1 inh: -1
  RGS16-Gao HTS: 105
  GALR2 agonist: ·

> COc1ccc(NC(=O)CN2C(=O)CC(C)(C)S(=O)(=O)c3ccccc32)cc1
  HSV augment: i
  HSV augment primary fold: 1
  Insulin prom inh: ·
  Insulin prom inh cell count: ·
  PKD1 inh: 2
  RGS16-Gao HTS: 100
  GALR2 agonist: -3.8

> S=c1[nH]nc2c3c4c(sc3ncn12)CCCC4
  HSV augment: i
  HSV augment primary fold: 0.99
  Insulin prom inh: 9
  Insulin prom inh cell count: 81
  PKD1 inh: -5
  RGS16-Gao HTS: 41
  GALR2 agonist: -1.6

> CCCOc1ccc(CN2CCOCC2)cc1OC
  HSV augment: i
  HSV augment primary fold: 1.1
  Insulin prom inh: ·
  Insulin prom inh cell count: ·
  PKD1 inh: ·
  RGS16-Gao HTS: 114
  GALR2 agonist: ·
